Compound activity (PubChem BioAssay)
KCNQ2 inh – KCNQ2 potassium channel inhibitors, primary screen, cell-based, CHO-K1, FluxOR thallium flux, B-score (AID 2156) | O88943 | 20 min; hits give low values; only compounds with negative scores are shown here; some inactives read as strong as hits | B-score at 10 µM | 310,000 tested, 1.1% active;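 active means fluorescence ratio B-score at most minus 3 library SDs, with starting brightness B-score within 2 library SDs, cut at about -5.5 in these data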
Target sequence (O88943 whole entry, looked up): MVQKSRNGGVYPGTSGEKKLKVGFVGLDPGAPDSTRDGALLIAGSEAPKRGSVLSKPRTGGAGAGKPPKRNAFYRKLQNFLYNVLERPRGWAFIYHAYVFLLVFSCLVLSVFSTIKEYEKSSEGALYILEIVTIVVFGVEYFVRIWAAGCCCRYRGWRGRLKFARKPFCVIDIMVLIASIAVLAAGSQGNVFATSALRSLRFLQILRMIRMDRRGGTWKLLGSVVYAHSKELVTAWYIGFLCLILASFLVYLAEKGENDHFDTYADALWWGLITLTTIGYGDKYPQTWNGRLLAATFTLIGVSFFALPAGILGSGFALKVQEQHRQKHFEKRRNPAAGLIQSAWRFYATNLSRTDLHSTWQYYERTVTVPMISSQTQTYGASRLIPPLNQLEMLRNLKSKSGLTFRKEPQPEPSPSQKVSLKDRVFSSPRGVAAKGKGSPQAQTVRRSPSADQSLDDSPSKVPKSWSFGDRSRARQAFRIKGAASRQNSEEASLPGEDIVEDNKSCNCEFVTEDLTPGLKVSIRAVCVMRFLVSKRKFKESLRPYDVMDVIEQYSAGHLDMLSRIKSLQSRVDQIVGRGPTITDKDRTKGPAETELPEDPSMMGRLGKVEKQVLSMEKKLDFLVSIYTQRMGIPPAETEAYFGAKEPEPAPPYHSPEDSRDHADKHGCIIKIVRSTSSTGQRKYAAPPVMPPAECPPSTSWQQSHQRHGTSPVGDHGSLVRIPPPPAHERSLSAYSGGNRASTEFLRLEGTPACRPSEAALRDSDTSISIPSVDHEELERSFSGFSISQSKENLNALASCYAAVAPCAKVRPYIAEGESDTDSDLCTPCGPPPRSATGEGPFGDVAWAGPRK
KCNQ2 inh baseline – also measured in KCNQ2 inh; calls as there; B-score; measured here: initial fluorescence intensity artifact check;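 brightness before thallium and not channel activity; 0 = typical well and far values either way flag optical interference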
* hit, by the source's call; i = inactive.

Values run as follows: KCNQ2 inh, KCNQ2 inh baseline
O=c1oc2ccccc2cc1-c1csc(Nc2nc3c(F)cccc3s2)n1
    i, 1.5
Cc1ccccc1CNC(=O)CCCC(=O)n1nc(C)c2ccccc21
    i, -2.9
Cc1cc(C)n(-c2cc(N3CCN(C(=O)c4ccc(C(C)(C)C)cc4)CC3)ccc2[N+](=O)[O-])n1
    i, 0.12
Cc1ccc(/C=N/NC(=O)c2ccoc2C)o1
    i, -0.02
CC(=O)NC1C(=O)N(CCN2CCOCC2)c2ccc(F)cc21 (stereo not given)
    i, 2.5
COc1ccccc1C1CCN(c2ccc([N+](=O)[O-])cn2)CC1
    i, -1.3
COC(=O)c1ccc(/C=C2\SC(=S)N(CCCC(=O)NCCCN3CCOCC3)C2=O)cc1
    i, -0.77
O=C(Nc1ccccc1)c1ccccc1NC(=O)C(F)(F)F
    i, -0.02
COc1ccc2cc(CN(CCc3ccccc3)Cc3nnnn3Cc3ccco3)c(=O)[nH]c2c1
    i, -1.2
CC(C)(C)OC(=O)NCCCC[C@H](NC(=O)c1[nH]cnc1C(=O)Nc1ccc(Cl)cc1)C(=O)OC(C)(C)C
    i, 1.6
O=C1C(Cl)=C(N2CCCCC2)C(=O)N1c1ccccc1
    i, 1.8
Cc1ccsc1/C=C1/SC(=O)N(CC(=O)N2CCOCC2)C1=O
    i, -0.88
Cc1ccc(CS(=O)(=O)CC(C)(O)c2ccccc2)cc1 (stereo not given)
    i, -0.91
CCOc1ccc(CN2CCN(Cc3cccn3-c3cccnc3)CC2CCO)cc1 (stereo not given)
    i, 0.92
CC(Oc1ccccc1)C(=O)OCC(=O)N1CC(=O)Nc2ccccc21 (stereo not given)
    i, 1.1
O=C(Nc1cc(C(F)(F)F)ccc1Cl)c1ccc(NC(=O)C(F)(F)F)cc1
    i, -0.22
O=C1CSC(=S)N1c1ccc(O)cc1
    i, -0.08
COC(=O)c1ccccc1NC(=O)N1CCN(S(=O)(=O)c2ccc(Cl)cc2)CC1
    i, 0.67
NS(=O)(=O)c1ccc(CCNC(=O)c2nc(CS(=O)(=O)c3ccc(Cl)cc3)no2)cc1
    i, -2.1
CSc1nc(Oc2ccc3ccccc3c2)c2ccccc2n1
    i, -0.01
C#Cc1ccc([C@H]2C=C(C(=O)OCC=C)O[C@@H](OCCCCO)C2)cc1
    i, -0.06
CC(C)C(=O)Nc1ccc2c(c1)C(=O)NC2=O
    i, 0.99
COc1ccc(Nc2nc(NCc3ccco3)nc(N/N=C/c3ccccc3F)n2)cc1
    i, 0.05
COc1ccc(C(=O)COC(=O)CCN2C(=O)C3C4CCC(C4)C3C2=O)cc1 (stereo not given)
    i, 0.45
COc1ccc(-c2cnc3n2CCCCC3)cc1
    i, -1.6
CCOC(=O)N1CCN(C(=O)c2ccc(OCC)cc2)CC1
    i, 1.1
COC(=O)CN1CCN(C(=O)c2ccco2)CC1
    i, 0.04
Cc1ccc2c(c1)N(C(=O)CCC(=O)N1CCC(C(N)=O)CC1)CC(C)O2 (stereo not given)
    i, 0.01
CC(C)(C)C(=O)OC/C(N)=N/OC(=O)c1ccc(Cl)cc1
    i, 3.2
Cc1ccc(-n2[nH]c(C)c(/C=N/NC(=O)c3ccc([N+](=O)[O-])cc3)c2=O)c(C)c1
    i, 0.92

Structures above that contain a CF3 group:
Values run as follows: KCNQ2 inh, KCNQ2 inh baseline
O=C(Nc1ccccc1)c1ccccc1NC(=O)C(F)(F)F
    i, -0.02
O=C(Nc1cc(C(F)(F)F)ccc1Cl)c1ccc(NC(=O)C(F)(F)F)cc1
    i, -0.22

The list continues.
Values run as follows: KCNQ2 inh, KCNQ2 inh baseline
c1ccc(-n2nnnc2-c2cnc(-c3ccncc3)nc2-c2cccs2)cc1
    i, -0.11
COc1ccc(/C=C(/NC(=O)c2ccccc2)C(=O)NC(Cc2c[nH]c3ccccc23)C(=O)O)cc1 (stereo not given)
    i, 0.97
Nn1c(SCC(=O)N2CCCCC2)nnc1-c1ccncc1
    i, 0.27
COc1cccc([C@@H]2Oc3ccc(OC)cc3C(=O)[C@H]2O)c1
    i, 0.26
O=c1c(Cc2ccccc2)c(O)ccn1CCc1cnc[nH]1
    i, 2.2
Cc1cc(NC(=O)Cn2cnc3c(nnn3-c3ccc(C)c(Cl)c3)c2=O)no1
    i, 0.29
c1cn(CCCNc2ncnc3nc[nH]c23)cn1
    i, 2.7
CSc1ccccc1NC(=O)c1ccncc1
    i, 2.6
COc1ccc(CCn2c(=N)c(C(=O)NCC3CCCO3)cc3c(=O)n4cccc(C)c4nc32)cc1 (stereo not given)
    i, -1.5
CCN1CCN(C(=O)Nc2ccc(OC)cc2OC)CC1
    i, -1.8
COCCNC(=O)C(C#N)c1nc2ccccc2nc1N1CCCCCC1 (stereo not given)
    i, -0.22
Cc1cc(/C=C2\C(=N)N3N=CSC3=NC2=O)c(C)n1Cc1ccccc1
    i, -0.5
O=C(Cn1c(NCCO)nc2ccccc21)c1ccccc1
    i, -1.5
COC(=O)CC1=C(C(=O)OC)C(c2ccc3c(c2Cl)OCO3)C(C#N)=C(N)O1 (stereo not given)
    i, 1.8
CCS(=O)(=O)c1nc(S(=O)(=O)c2ccc(C)cc2)c(N2CCCC2)s1
    i, 0.63
CCOC(=O)C1CCCN(CCC(=O)Nc2ccccc2)C1 (stereo not given)
    i, -1.4
CCOc1cc(/C=C/c2cc(C(F)(F)F)[nH]c(=O)n2)ccc1O
    i, -2.9
COc1ccc(NS(=O)(=O)c2cc(NC(=O)c3sccc3C)ccc2N2CCOCC2)cc1
    i, -0.9
CCS(=O)(=O)N1Cc2ccccc2CC1C(=O)Nc1ccc(NC(C)=O)cc1 (stereo not given)
    i, -0.1
O=C(Cn1c(=O)c(=O)n(Cc2ccccc2)c2ccc(Cl)cc21)NCC1CCCO1 (stereo not given)
    i, 1.6
C=C(C)C(=O)Oc1ccc(N2C(=O)CCC2=O)cc1
    i, -1.2
Cc1nn(C(C)(C)C)c(OC(=O)c2ccco2)c1Sc1ccccc1
    -6.1*, -0.48*
COC(=O)[C@H](CCSC)NC(=O)Nc1cc(OC)cc(OC)c1
    i, -0.4
O=C(CN(c1ccc2c(c1)OCCO2)S(=O)(=O)c1ccccc1)NCc1ccc(Cl)cc1
    i, -2.6
NC(=O)c1cc(S(=O)(=O)NCCc2ccc(S(N)(=O)=O)cc2)cs1
    i, 0.04
O=C(COC(=O)c1ccccn1)c1cccc(Br)c1
    i, -0.5
Cc1ccc(Cl)cc1Nc1nc(N2CCOCC2)nc(N2CCOCC2)n1
    i, -0.35
CCOC(=O)COc1ccc2c(=O)c(-c3ccc(OC)c(OC)c3)c(C(=O)OCC)oc2c1
    i, -2.1
Cn1cnc2c1c(=O)n(Cc1ccc(F)cc1Cl)c(=O)n2C
    i, 0.44
CN1C2CCC1CC(NS(=O)(=O)c1ccc(C#N)cc1)C2 (stereo not given)
    i, -0.37
COc1ccc(NC(=O)c2cc(-c3ccccc3OC)on2)cc1
    i, 0.61
CCOC(=O)C1(Cc2cccc(OC)c2)CCCN(C(=O)CCc2cccnc2)C1 (stereo not given)
    i, -1.8
CC(C)NC(=O)CCc1nnc(Cc2cccc(C(F)(F)F)c2)o1
    i, -0.02
CCSc1nnc(NC(=O)c2ccc3ccccc3n2)s1
    i, 1
CN1C(=O)Nc2cccc3cccc1c23
    i, 2.6
COc1ccc(NC(=O)Nc2cnccn2)cc1OC
    i, -1.9
CC(OC(=O)c1cc(O)c2ccccc2c1O)C(=O)Nc1ccc(C(N)=O)cc1 (stereo not given)
    i, 1.5
COc1ccccc1NS(=O)(=O)c1cc(NC(=S)NCCN2CCOCC2)ccc1N1CCOCC1
    i, 0.22
COc1cc(C2Nc3ccccc3NC3=C2C(=O)CC(C)(C)C3)cc(OC)c1OC (stereo not given)
    i, -1.7
Cc1cc(C)cc(NC(=S)/N=C(\N)Nc2nc(C)c3ccccc3n2)c1
    i, 0.63
CCOC(=O)N1CCC2(CC1)CC(=O)c1cc(O)ccc1O2
    i, 1.2
COC(=O)c1ccccc1NC(=O)c1ccc(Cn2cc(Cl)cn2)o1
    i, -0.36
COc1cc(OC)c(C(=O)NCc2cccnc2)cc1OC
    i, 0.8
Cn1c(=O)oc2cc(S(=O)(=O)N3CCCC(C(=O)Nc4nccs4)C3)ccc21 (stereo not given)
    i, -2
O=C(Nc1ccccc1-c1ccccc1)c1ccc(Br)o1
    i, 0.12
N#Cc1c(=O)c2nc(NCCCO)ncc2n2c(=O)c3ccccc3[nH]c12
    i, 3.1
O=C(Nc1ccc(F)cc1)c1cccnc1NCCc1ccccc1
    i, 1.6
Cc1ccc2nc(NC(=O)c3cccc(-c4cc5ccccc5oc4=O)c3)sc2c1
    i, -0.52
CC(=O)c1ccc(-n2ccc(=O)cc2)cc1
    i, -0.24
O=C(O)C(c1ccccc1)C(c1ccccc1)c1ccccc1 (stereo not given)
    i, 0.21

Later entries.
Values run as follows: KCNQ2 inh, KCNQ2 inh baseline
O=C(c1cc([N+](=O)[O-])ccc1Cl)N1CCN(Cc2ccc3c(c2)OCO3)CC1
    i, -0.02
Cc1ccc(OCc2ccc(C(=O)Nc3nccs3)o2)cc1
    i, -1.2
COc1ccc(C2(C)NC(=O)N(CC(=O)Nc3ccc(S(=O)(=O)N4CCCC4)cc3)C2=O)cc1 (stereo not given)
    i, 1.5
COc1cccc(C2C(C(=O)Nc3ccc(C)cc3C)=C(C)Nc3ncnn32)c1OC (stereo not given)
    -12*, -2.3*
CC(C)C(OC(=O)c1cccs1)C(=O)NCc1cccs1 (stereo not given)
    i, 0.72
CC(C)Cc1ccc(S(=O)(=O)N2CCCC2)cc1
    i, 0.68
Cc1ccc(C)c(NC(=O)COC(=O)c2cccc(S(=O)(=O)N3CCCCC3)c2)c1
    i, -0.42
CCOC(=O)c1cnc(/N=C/N(C)C)s1
    i, -0.37
Cc1cccc(SCC(=O)Nc2ccc3c(c2)OCCO3)c1
    i, -0.8
CC(C)Oc1ccc(N2CC(C(=O)Nc3ccccc3C(=O)NC3CC3)CC2=O)cc1 (stereo not given)
    i, 2.4
Cc1cc(Cl)ccc1NNC(=O)c1cccs1
    i, 2.7
Cc1nc2ccc3nc(NC(=O)c4ccc5c(c4)OCCO5)sc3c2s1
    i, 4.7
CC1CCCCC1NC(=O)/C(C#N)=C/c1ccc2c(c1)OCCO2 (stereo not given)
    i, 0.04
CC(C)(C)n1nnnc1C(c1cccs1)N1CCN(Cc2ccc3c(c2)OCO3)CC1 (stereo not given)
    i, -1
COc1ccc(NC(=O)c2ccccc2N(Cc2ccccc2)S(C)(=O)=O)cc1OC
    i, 1.4
Cc1ccc(S(=O)(=O)N2CC(=O)Nc3ccccc32)c(C)c1NS(C)(=O)=O
    i, -0.03
CC(=O)Oc1ccccc1C(=O)NC(C)CCc1ccccc1 (stereo not given)
    i, 2.4
Cc1onc(-c2c(F)cccc2Cl)c1C(=O)NCc1cccs1
    i, -0.42
CCN(CC(=O)NCc1cccs1)c1ccc(S(=O)(=O)N2CCN(C)CC2)cn1
    i, 2.4
Cn1nccc1C(=O)Nc1sc2c(c1C(N)=O)CCCC2
    i, -0.34

Three structures from above, arranged by count of non-hydrogen atoms, ascending.
Values run as follows: KCNQ2 inh, KCNQ2 inh baseline
CCSc1nnc(NC(=O)c2ccc3ccccc3n2)s1
    i, 1
O=c1c(Cc2ccccc2)c(O)ccn1CCc1cnc[nH]1
    i, 2.2
COc1ccc(CCn2c(=N)c(C(=O)NCC3CCCO3)cc3c(=O)n4cccc(C)c4nc32)cc1 (stereo not given)
    i, -1.5

The list goes on:
Values run as follows: KCNQ2 inh, KCNQ2 inh baseline
COc1cccc(CCNC(=O)C2CCC(=O)N(C3CC3)C2)c1OC (stereo not given)
    i, 0.11
COc1ccc(N=C2SCC(=O)N2CCc2ccc(OC)c(OC)c2)cc1
    i, -0.78
COc1ccccc1N1CCN(/N=C/c2ccc(OC)c(OC)c2OC)CC1
    i, -1.4
Cc1cc(Br)cc(Cl)c1OCC(=O)NC(=O)NCc1ccccc1
    i, 1.4
O=C1CC(c2ccccc2)CC(O)=C1C=NCc1ccccc1Cl (stereo not given)
    i, -2.3
O=C(O)c1ccccc1N/C=C\[N+](=O)[O-]
    i, 3.6
CN(C)c1ccnc(SCc2ccccc2Cl)c1C#N
    i, -0.06
O=C(NC(=S)NCc1ccc2c(c1)OCO2)c1ccccc1
    i, 1.2
CCCN(C(=O)COc1ccc(Cl)cc1Cl)c1c(N)n(Cc2ccccc2)c(=O)[nH]c1=O
    i, 2.2
NC(=O)CS(=O)(=O)c1nc2ccccc2n1Cc1ccccn1
    i, -1.8
NS(=O)(=O)c1ccc(CCNC(=O)c2cc(=O)[nH]c3ccccc23)cc1
    i, -1.2
Clc1ccc(OCCCCSc2ncccn2)cc1
    i, 0.57
O=C1CCN(C(=O)CSc2ccc(Cl)cc2)N1
    i, 0.63
COc1cccc(C(C)NC(=O)c2c(F)cccc2Cl)c1 (stereo not given)
    i, -0.91
COc1ccc(CN2CCNC(=O)C2CC(=O)NCc2csc(C(C)C)n2)c(OC)c1 (stereo not given)
    i, -1.6
CCc1ccc(S(=O)(=O)Nc2nnc(N)s2)cc1
    i, -0.06
O=[N+]([O-])c1cc(-c2nc(-c3ccncc3)no2)cc([N+](=O)[O-])c1
    i, 1.8
O=C(O)c1ccc(CSc2nnc(-c3ccco3)o2)cc1
    i, 0.62
CCN(CC)C(=O)Cn1cc(C(=O)C(=O)NCc2cccs2)c2ccccc21
    i, 0.08

Entries of single compounds, quoted from the list.
`CCN(CC)C(=O)Cn1cc(C(=O)C(=O)NCc2cccs2)c2ccccc21` is listed with KCNQ2 inh: i; KCNQ2 inh baseline: 0.08
`COc1cccc(C(C)NC(=O)c2c(F)cccc2Cl)c1` (stereo not given) is listed with KCNQ2 inh: i; KCNQ2 inh baseline: -0.91

Some of the compounds tested; count on the stated rates, not on these rows.
